Assay outcomes from PubChem BioAssay.
Vaccinia mCherry = qHTS for Stage-Specific Inhibitors of Vaccinia Orthopoxvirus: mCherry Reporter Primary qHTS | Vaccinia virus mCherry reporter infection, fluorescence; about a quarter of the inactives have no number | Potency, µM (series often up to 36.5 µM), for inactives: top-dose activity change, negative = inhibition, usual class: inhibitors | 310,000 tested, 0.63% active | AID 720579, 2013; active = well fitted inhibition curve with a large enough effect; inconclusive = small, poorly fitted or top-dose-only effect; inactive = no such curve, though single readings can be large or run the other way; tested in A549 cells; also: nearly all actives have a fitted effect of over 35% in size; inactives centre near -10
VACV Venus inh = qHTS for Stage-Specific Inhibitors of Vaccinia Orthopoxvirus: Venus Reporter Primary qHTS. Potency, µM (titrated, usually from 36.5 µM), for the others: top-dose activity change, negative = inhibition, most hits filed as inhibitors. Vaccinia virus Venus reporter expression, fluorescence. 330,000 tested, 0.46% active; active means well fitted inhibition curve with a large enough effect; inconclusive means small, poorly fitted or top-dose-only effect; inactive means no such curve, though single readings can be large or run the other way; tested in A549 cells; also: nearly all actives have a fitted effect of over 30% in size; inactives centre near -10
* marks the source's active call; other numbers are inactive results; i = inactive; ? = inconclusive; . = no result given; & = joins results of further samples. % is scaled to controls: 0 for no effect and ±100 for the full control effect; potency is read from the fitted curve at half-maximal effect.

SMILES	Vaccinia mCherry	VACV Venus inh
Cc1ccc(C(=O)N2CCC(C(N)=O)CC2)cc1NC(=O)c1nsc2ccccc12	-2.3%	-12.0%
Clc1ccc2c(SCC3CO3)c3ccccc3nc2c1 (stereo not drawn)	i	?
Cn1cccc1/C=N/NC(=O)Cn1cnc2ccccc21	.	-11.5%
COC(=O)c1ccc(CSc2nnnn2-c2ccccc2)o1	-9.5%	-8.8%
Cc1ccccc1C(=O)Nc1cccc(-c2nnc(SCC(=O)O)n2C)c1	.	-10.7%
CCOC(=O)C(Cc1ccc(O)cc1)NC(=O)CNC(=O)C(CC(C)C)NC(=O)OC(C)(C)C (stereo not drawn)	-19.7%	-13.2%
Fc1ccc(CCNc2ncnc3nc[nH]c23)cc1	-19.1%&-26.5%	?
CC(NC(=O)Oc1ccccc1)C(c1cccs1)N1CCOCC1 (stereo not drawn)	-10.5%	-9.2%
CCCNC(=O)CNC(=S)N(Cc1cc(OC)c(OC)c(OC)c1)C1CCCC1	i	5.5%
Cc1cccc(CNC(=O)CN2CC(C)Sc3ccccc32)c1 (stereo not drawn)	-2.4%	-1.5%
Cc1c(C(=O)N2CCN(S(C)(=O)=O)CC2)oc2ccccc12	i	-15.2%
COc1cccc(CNC(=O)Cn2c(=O)n3nc(-c4cccc(C)c4)nc3c3ccccc32)c1	-2.2%	-0.9%
CC1(C)CC(=O)C=C(c2ccc(OC(F)(F)F)cc2)C1	i	-8.2%
CCc1ccc(NC(=O)Cn2c(=O)n(CCc3ccccc3)c(=O)c3sc4ccccc4c32)cc1	-17.9%	-9.2%
OCCN1CCN(c2ncnc3c2ncn3[C@H]2CN(Cc3cccnc3)C[C@@H](CO)O2)CC1	-3.2%	2.1%
CCC(Oc1ccccc1)C(=O)Nc1ccccc1N1CCCC1 (stereo not drawn)	?	-8.2%
CCCNS(=O)(=O)c1cccn1-c1ncc(C(F)(F)F)cc1Cl	-15.4%	-12.5%
COc1ccc2nc(Nc3sc4c(c3C(N)=O)CCCC4)sc2c1	-13.9%	6.4%
O=c1[nH]c2ccccc2cc1CN(CC1CCCO1)S(=O)(=O)c1ccc(Cl)cc1 (stereo not drawn)	i	-0.3%
Cc1cc(/C(N)=N/OC(=O)c2cccc(Cl)c2)no1	-9.5%	-5.9%
CSc1cccc(-n2ccc(=O)c(C)c2C)c1	-5.0%	-13.3%
c1ccc(-c2cnnc(-c3ccccn3)n2)cc1	-9.1%	-7.6%
Nc1ncc2[nH]c(N)nc2n1	-16.4%	19.6%
Cc1cc(N2CCN(c3ccc([N+](=O)[O-])c4cccnc34)CC2)c2ccccc2n1	-19.9%	-11.1%
CCOC(=O)c1cn(C2CC2)c2c(F)c(F)c(F)cc2c1=O	4.3%	6.9%
Cc1ccccc1CNC(=O)Cn1nc(C)c2nn(-c3ccc(Cl)cc3)c(C)c2c1=O	-16.5%	-18.2%
CCc1ccc(NCc2cc3cc(OC)c(OC)cc3n(CC(=O)Nc3ccc(F)cc3)c2=O)cc1	-10.5%	-1.0%
CN(C)Cc1ccccc1-c1ccc2ncnc(NCc3ccccc3)c2c1	i	4.9%
Cc1cccc(-c2nc(SCC(=O)N3CCc4ccccc43)c3c(=O)n(C)c(=O)n(C)c3n2)c1	9.4%	-6.1%
Cc1ccc(Cl)cc1N1CCN(S(=O)(=O)c2ccc3c(c2)OCCO3)CC1	-14.6%	-9.7%
COc1cccc(C2CCCN2Cc2nc(-c3sccc3C)oc2C)c1 (stereo not drawn)	?	-15.7%
CCOc1cc2c(C#N)c(N3CCCC3)nc(N)c2c(N)n1	i	-19.2%
CCOc1cccc(-c2cc(C(=O)N3N=C(C)CC3(O)C(F)F)c3ccccc3n2)c1 (stereo not drawn)	i	-8.3%
CN(C)CCOC(=O)c1ccc2c(c1)S(=O)(=O)c1ccccc1C2=O	i	8.7%
CCOc1cc(-c2nc3ccccc3s2)ccc1O	?	-13.7%
CCOc1ccc(C=Nc2ccc(/C=C/c3ccnc4ccccc34)cc2)cc1OCC	19.7%	-9.3%
CC(C)(C)c1ccc(C(=O)Nc2ccc([N+](=O)[O-])cn2)cc1	-22.6%	-12.1%
COc1cccc(NC(=O)C2CCCCC2)c1	-14.4%	-4.1%
COc1ccc(OC)c(C(=O)Cn2cnc3ccccc3c2=O)c1	7.2%	-6.5%
CCC(=O)N(Cc1cc(=O)[nH]c2ccccc12)c1ccccc1OC	-12.1%	-15.8%

One compound at a time, as listed above. Values in the order: Vaccinia mCherry	VACV Venus inh
CCOc1cc(-c2nc3ccccc3s2)ccc1O across the screens: ?	-13.7%
CN(C)CCOC(=O)c1ccc2c(c1)S(=O)(=O)c1ccccc1C2=O across the screens: i	8.7%

Continuation:
SMILES	Vaccinia mCherry	VACV Venus inh
O=C(NNC(=O)c1cc(Cl)ccc1[N+](=O)[O-])c1csc(N2CCOCC2)n1	-17.3%	0.5%
COc1ccc2ccccc2c1CNC(C)CCc1ccccc1 (stereo not drawn)	-16.4%	-3.8%
COc1ccc(NC(=O)c2ccc(S(=O)(=O)N(C)c3ccccc3)cc2)cc1S(=O)(=O)N1CCOCC1	?	?
CN(C)c1ccc(CNC(=O)c2ccc3c(c2)N(C)C(=O)C2CCCCN32)cc1 (stereo not drawn)	i	-7.6%
Cc1cc(CN2CCN(c3ccccc3F)CC2)cs1	-5.2%	-5.9%
CC(C)Oc1cccc(C(=O)NC(=S)N2CCN(c3ccc(C(F)(F)F)cc3[N+](=O)[O-])CC2)c1	.	-36.0%
Nc1ncncc1-c1ccc(Cl)cc1	-21.4%	-13.1%
CCCCCCCCCCCC1N=C(N)NC(CCCO)=C1C(=O)OC (stereo not drawn)	-23.2%	?
CCOC(=O)Nc1cccc2ccccc12	-12.4%	-17.7%
CCN(Cc1ccccc1)S(=O)(=O)c1cc(C(=O)Nc2cc(Cl)cc(Cl)c2)ccc1F	-25.6%	?
CCCc1nc(SCC(=O)N2CCN(c3ccccc3)CC2)c2c(=O)n(C)c(=O)n(C)c2n1	-17.7%	-20.6%
COC(=O)C[C@@H]1C=C[C@H](NC(=O)Nc2cc(F)ccc2F)[C@@H](CO)O1	-6.3%	-10.3%
COc1ccc(Cl)cc1NC(=O)c1cccc([N+](=O)[O-])c1O	i	-18.8%
CCC(=O)Nc1ncc2c(n1)CC(c1ccco1)CC2=O (stereo not drawn)	i	2.1%
CCn1nc(-c2cccs2)nc2c(=O)n(C)c(=O)nc1-2	.	0.794µM*
Cc1ccccc1-n1c(SCC(=O)c2cc(C)n(C)c2C)nnc1-c1cccnc1	-12.1%	-20.6%
COc1ccc(N2C(=O)C(CC(N)=O)N(NC(=O)c3cccc(OC)c3)C2=S)cc1 (stereo not drawn)	-13.0%	-4.0%
COc1cc(C(C(=O)NCc2ccccc2)N(C(=O)c2snc(C(N)=O)c2N)C2CCCC2)cc(OC)c1OC (stereo not drawn)	i	-9.6%
COc1ccc(C(CCN2CCOCC2)c2c(OC)cc(OC)c3c(C)cc(=O)oc23)cc1 (stereo not drawn)	?	-13.6%
O=C(CN1C(=O)COc2ccc(S(=O)(=O)Nc3ccccc3)cc21)Nc1cccc(Cl)c1	-8.7%	-6.1%

3 records picked at random from the list so far, as already listed:
SMILES	Vaccinia mCherry	VACV Venus inh
COC(=O)C[C@@H]1C=C[C@H](NC(=O)Nc2cc(F)ccc2F)[C@@H](CO)O1	-6.3%	-10.3%
O=C(NNC(=O)c1cc(Cl)ccc1[N+](=O)[O-])c1csc(N2CCOCC2)n1	-17.3%	0.5%
COc1ccc(NC(=O)c2ccc(S(=O)(=O)N(C)c3ccccc3)cc2)cc1S(=O)(=O)N1CCOCC1	?	?

Continuation:
SMILES	Vaccinia mCherry	VACV Venus inh
CCOC(=O)C1(CCc2ccccc2)CCN(C(=O)c2cnc(C)cn2)CC1	-14.4%	-6.2%
CCC1=NN(C(=O)CCc2ccc3c(c2)OCO3)C(O)(C(F)(F)F)C1 (stereo not drawn)	-1.9%	3.2%
C=C1c2cccc(C(F)(F)F)c2O[C@H](C(=O)OCC)[C@H]1OC	-0.5%	-10.9%
O=C1CC(NNC(=O)c2ccc(Br)cc2)C(=O)N1 (stereo not drawn)	-3.3%	-5.2%
CC(C)CNC(=O)CC(=O)N/N=C/c1ccc(Br)cc1	-3.4%	-4.9%
O=C(c1cc(-c2ccncc2)nc2ccccc12)N1CCN(S(=O)(=O)/C=C/c2ccccc2)CC1	-7.1%	-17.9%
Cc1ccc2c(c1)C(N1CCCC1=O)CC(c1ccco1)N2 (stereo not drawn)	-24.7%	-22.4%
COc1ccc(S(=O)(=O)c2c(Nc3ccccc3F)sc(C(=O)c3cccc(OC)c3)c2N)cc1	-16.9%	-29.1%
CCOc1ccccc1NC(=O)CCNS(=O)(=O)c1cccc2nonc12	-2.3%&-5.4%	-7.1%&-4.9%
CN(C)C1C(=O)C(C(N)=O)=C(O)C2(O)C(=O)C3=C(O)c4c(O)cccc4C(C)(O)C3CC12 (stereo not drawn)	-5.6%	-14.7%
O=C(NC1CCCCC1)N1CCCC(c2nc(-c3ccc(S(=O)(=O)N4CCCC4)cc3)no2)C1 (stereo not drawn)	-8.2%	0.6%
S=C(NCCN1CCOCC1)Nc1ccc(Cl)c(Cl)c1	-16.5%	17.2%
CCOC(=O)c1cnn(CC2CCCCC2)c1N	.	0.4%
C[C@@]12C(=O)N(CC3CCCO3)CC(=O)N1[C@H]1c3ccccc3OC[C@@H]1[C@@H]2c1ccccc1 (stereo partly drawn)	-6.0%	-15.8%
O=C1CCCc2ccccc2N1Cc1cccc(Cl)c1	.	-20.4%
CC(=O)Nc1sc2c(c1C#N)CCC(C)C2 (stereo not drawn)	-11.0%	-6.9%
O=C(Cc1ccc([N+](=O)[O-])cc1)c1ccccc1	-1.8%	-17.5%
Cc1cc(C)cc(NC(=O)Nc2cccnc2)c1	-21.2%	-20.9%
Nn1c(SCC(=O)Nc2ccc3c(c2)OCO3)nnc1-c1ccncc1	-18.5%	-15.7%
CCCCn1c(SCC(=O)c2ccc3c(c2)OCCO3)nnc1-c1ccco1	-8.1%	-5.8%
COC(=O)c1sccc1NC(=O)c1cccc(F)c1	-11.9%	-5.1%
CN(C)CCCN(C(=O)c1cccs1)c1nc2ccc(F)cc2s1	-14.8%	-12.5%
COC(=O)c1ccc(N2CCN(CC(=O)c3ccc(-c4ccccc4)cc3)CC2)c([N+](=O)[O-])c1	-10.5%	-4.9%
COc1ccc(NC(=O)N(CCCN2CCOCC2)Cc2cccnc2)c(OC)c1	-5.2%	-5.2%
COn1c(-c2ccccc2)c(C=O)c2ccccc21	-24.1%	-15.7%
NNC(=O)C1CCCN1S(=O)(=O)c1ccc(Cl)cc1 (stereo not drawn)	-9.7%	-4.2%
O=C(CSc1ccc(-c2ccccn2)nn1)NC1CCCCC1	2.5%	2.0%
Cc1c(C(=O)OC2CCC(C)CC2)[nH]c2c1C(=O)CC(c1ccc(N(C)C)cc1)C2 (stereo not drawn)	-11.6%	-9.2%
Cc1ccc(S(=O)(=O)CNC(=O)c2ccccc2)cc1	i	-12.2%
Cc1cc2cc3n(c2nn1)N=C(Cl)CC3	?	?
Cc1ccc(NC(=O)c2c(C)noc2C)cc1	.	?
O=C(CC12CC3CC(CC(C3)C1)C2)N/N=C/c1ccncc1	-8.1%	-13.0%
Cc1ccc(-n2ncc(C(=O)NCc3ccco3)c2C2CCN(C(=O)OC(C)(C)C)CC2)cc1	-15.8%	-11.9%
CC(C)(C)OC(=O)C[C@H]1C/C=C\C[C@@H](CC(=O)NCCO)C(=O)N2CCC[C@H]2COC1=O	-16.5%	-3.5%
COCCn1c(Cc2ccccc2)nnc1SCC(=O)Nc1oc(C)c2c(C)n[nH]c(=O)c12	-13.2%	-13.6%
Cc1ccc(CNC(=O)c2ccc([N+](=O)[O-])o2)cc1	?	?
CC(C)C[C@H]1CN([C@@H](CC(C)C)CN2CCC[C@@H]2CN2C(=S)NC[C@@H]2Cc2ccc(O)cc2)C(=S)N1CCc1ccccc1	-15.2%	-16.0%
Cc1cccc(-c2cnc(C(O)c3ccc(F)c(C)c3)[nH]2)c1 (stereo not drawn)	3.8%	-19.5%
C=CCNC(=O)c1nn2cccnc2c1Cl	.	-3.9%
CC(=O)N1N=C2C3CCN(CC3)C2C1c1ccccc1 (stereo not drawn)	-13.5%	-23.6%

An excerpt of these results, with values under each structure.
Sequence of screens – Vaccinia mCherry | VACV Venus inh
> CN(C)CCCN(C(=O)c1cccs1)c1nc2ccc(F)cc2s1
 : -14.8% | -12.5%
> COC(=O)c1ccc(N2CCN(CC(=O)c3ccc(-c4ccccc4)cc3)CC2)c([N+](=O)[O-])c1
 : -10.5% | -4.9%
> COCCn1c(Cc2ccccc2)nnc1SCC(=O)Nc1oc(C)c2c(C)n[nH]c(=O)c12
 : -13.2% | -13.6%

Additional entries.
SMILES	Vaccinia mCherry	VACV Venus inh
COc1ccccc1NC(=O)c1ccc(CN2C(=O)C(C)=C(c3ccc(C)c(C)c3)S2(=O)=O)cc1	-15.7%	-8.3%
NC(=O)C1CC2(C1)CC(C(N)=O)C2 (stereo not drawn)	-7.8%	3.6%
COc1ccc(Nc2ncnc3c2nc2n3CCCC2)cc1Cl	-0.3%	-15.6%
CCCN1C(=O)CC(C(=O)OC)=C1C	-6.5%	-5.6%
CCOc1ccccc1CNC(=O)C1CCN(C(=O)c2sccc2-n2cccc2)CC1	.	?
